Vaccinia stage: Vaccinia orthopox stage-specific inhibition; Vaccinia-infected cells, mCherry/Venus stage reporter fluorescence; stronger effect = lower value; some inactives read as strong as hits; activity change (mCherry), % (test concentration not listed); 89,000 compounds, 0.01% hits;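 active means mCherry past -33% and 40 or more points under the early reporter, replicates agreeing; inconclusive means past -33% without that gap or agreement; tested in A549 cells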;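 further: scaled between vehicle wells and reference inhibitor wells; 23 nL library stock went into each well; one replicate is shown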
Vaccinia stage Venus: also measured in Vaccinia stage; calls as there; activity change (Venus), %; measured here: Venus reporter, other viral stage;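 negative = less Venus signal; first of two replicates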
* marks the source's active call; other numbers are inactive results. Not all compounds are listed; the hit share may differ from the screen's.

Results for O=C(C[C@@H]1CC[C@@H]2[C@H](COC[C@H](O)CN2S(=O)(=O)c2ccccc2)O1)N[C@H]1CCN(Cc2ccccc2)C1 ?
Vaccinia stage: -10.6; Vaccinia stage Venus: -6.3

Results for Cc1noc(C)c1S(=O)(=O)N(C)C[C@@H]1Oc2ccc(NS(=O)(=O)c3ccc(Cl)cc3)cc2CC(=O)N([C@H](C)CO)C[C@H]1C ?
Vaccinia stage: 15.9; Vaccinia stage Venus: 10.5

How did C[C@@H]1CN([C@@H](C)CO)C(=O)c2cc(/C=C/c3ccccc3)cnc2O[C@H]1CN(C)Cc1cccc(C(=O)O)c1 do in these assays?
Vaccinia stage: 11.6; Vaccinia stage Venus: 1.7

How did COCC(=O)N1CC[C@@H]2[C@@H](CO)Nc3ccc(C#Cc4ccccc4)cc3[C@@H]21 do in these assays?
Vaccinia stage: 11.2; Vaccinia stage Venus: 6.4

What do the screens show for `C[C@@H]1CN([C@@H](C)CO)C(=O)c2cccc(NC(=O)Nc3ccc(F)cc3)c2O[C@H]1CN(C)Cc1ccc(-c2ccccc2)cc1`?
Vaccinia stage: -19.3; Vaccinia stage Venus: -15.3

How did COC(=O)[C@H]1[C@H](CO)[C@H]2Cn3c(ccc(C4=CCCCC4)c3=O)[C@@H]1N2Cc1ccccc1OC do in these assays?
Vaccinia stage: 17.0; Vaccinia stage Venus: 8.8

Results for Cc1ccc(S(=O)(=O)N(C)C[C@@H]2Oc3c(NC(=O)CCCCCC(=O)Nc4ccccc4N)cccc3C(=O)N([C@@H](C)CO)C[C@@H]2C)cc1 ?
Vaccinia stage: -3.3; Vaccinia stage Venus: 0.4

Results for CC(C)NC(=O)Nc1ccc2c(c1)C(=O)N([C@@H](C)CO)C[C@H](C)[C@H](CN(C)C(=O)NC1CCCCC1)O2 ?
Vaccinia stage: 5.2; Vaccinia stage Venus: 8.1

Results for N#C[C@H]1[C@H](c2ccc(C#CC3CCCC3)cc2)[C@@H](CO)N1S(=O)(=O)c1ccccc1 ?
Vaccinia stage: -5.2; Vaccinia stage Venus: -2.3

What do the screens show for `CCC(=O)N[C@H]1CC[C@H](CCNS(=O)(=O)c2ccc(Cl)cc2)O[C@@H]1CO`?
Vaccinia stage: 6.3; Vaccinia stage Venus: 4.3

What do the screens show for `CC(C)C#Cc1ccc2c(c1)O[C@H](CN(C)C(=O)NC(C)C)[C@@H](C)CN([C@H](C)CO)S2(=O)=O`?
Vaccinia stage: -14.6; Vaccinia stage Venus: 2.1

How did COCC(=O)N1CC(=O)N2[C@H](CO)[C@H](c3ccc(C#CCc4ccccc4)cc3)[C@H]2C1 do in these assays?
Vaccinia stage: 10.3; Vaccinia stage Venus: -7.8

How did COc1ccccc1S(=O)(=O)N[C@@H]1C=C[C@H](CC(=O)N2CCOCC2)O[C@H]1CO do in these assays?
Vaccinia stage: 0.7; Vaccinia stage Venus: -2.6

What do the screens show for `C[C@H](CO)N1C[C@H](C)[C@H](CN(C)C(=O)Nc2cccc3ccccc23)Oc2c(NC(=O)c3ccncc3)cccc2C1=O`?
Vaccinia stage: 13.4; Vaccinia stage Venus: 21.5

How did C[C@@H]1CN([C@@H](C)CO)C(=O)c2cc(C#CC3CCCC3)cnc2O[C@@H]1CN(C)C(=O)c1ccncc1 do in these assays?
Vaccinia stage: -21.4; Vaccinia stage Venus: -12.9

How did C[C@H](CO)N1C[C@H](C)[C@H](CN(C)C(=O)NC2CCCCC2)Oc2ncc(C#CC(C)(C)O)cc2C1=O do in these assays?
Vaccinia stage: 6.0; Vaccinia stage Venus: -0.1

Results for O=C(Cc1ccccn1)NCC[C@H]1CC[C@@H](NC(=O)c2ccccc2F)[C@H](CO)O1 ?
Vaccinia stage: -5.5; Vaccinia stage Venus: -12.5

Results for CCCNC(=O)C[C@@H]1CC[C@H]2[C@H](COc3ccc(NC(=O)c4ccc5c(c4)OCO5)cc3C(=O)N2C)O1 ?
Vaccinia stage: -19.0; Vaccinia stage Venus: 2.8

Results for CCN1[C@H](C(=O)N(C)C)[C@@H](CO)[C@@H]2Cn3c(ccc(/C=C/c4ccccc4)c3=O)[C@@H]21 ?
Vaccinia stage: -11.3; Vaccinia stage Venus: -1.1

What do the screens show for `O=C(C[C@@H]1C=C[C@H](NC(=O)NC2CCCCC2)[C@@H](CO)O1)NCc1ccccc1`?
Vaccinia stage: 0.1; Vaccinia stage Venus: -2.8

How did O=C(C[C@@H]1C=C[C@@H](NC(=O)c2ccncc2)[C@@H](CO)O1)Nc1ccc(-c2ccccc2)cc1 do in these assays?
Vaccinia stage: -12.2; Vaccinia stage Venus: -8.2

How did COc1ccc2c3c(n(C)c2c1)[C@@H](CO)N(C(=O)CC1CC1)CC31CCN(C(=O)C2CC2)CC1 do in these assays?
Vaccinia stage: 12.0; Vaccinia stage Venus: 3.5

How did COc1ccc2c3c(n(C)c2c1)[C@H](CO)N(C(=O)C1CCC1)CC31CCN(C)CC1 do in these assays?
Vaccinia stage: -8.7; Vaccinia stage Venus: -7.0

Results for CC(C)NC(=O)N(C)C[C@@H]1Oc2ncc(-c3cccc(C(F)(F)F)c3)cc2C(=O)N([C@H](C)CO)C[C@@H]1C ?
Vaccinia stage: -4.4; Vaccinia stage Venus: 10.9

Results for Cc1noc(C)c1NC(=O)N(C)C[C@H]1Oc2ccc(NS(C)(=O)=O)cc2C(=O)N([C@H](C)CO)C[C@H]1C ?
Vaccinia stage: 26.7; Vaccinia stage Venus: 14.9

What do the screens show for `C[C@H]1CCCCO[C@H](CN(C)C(=O)CCCN(C)C)[C@@H](C)CN([C@@H](C)CO)C(=O)c2cc(NC(=O)Cc3ccccc3)ccc2O1`?
Vaccinia stage: 13.9; Vaccinia stage Venus: 6.5

Results for O=C(C[C@H]1CC[C@@H](NC(=O)C2CCOCC2)[C@H](CO)O1)NCC1CCCCC1 ?
Vaccinia stage: 6.7; Vaccinia stage Venus: 6.7

Results for Cc1noc(C)c1NC(=O)Nc1cccc2c1O[C@@H](CN(C)C(=O)Nc1ccc3c(c1)OCO3)[C@@H](C)CN([C@@H](C)CO)C2=O ?
Vaccinia stage: 5.4; Vaccinia stage Venus: 3.2

Results for C[C@@H]1CN([C@@H](C)CO)C(=O)c2cccc(NS(=O)(=O)c3ccc(F)cc3)c2O[C@H]1CN(C)S(=O)(=O)c1ccc(Cl)cc1 ?
Vaccinia stage: 23.9; Vaccinia stage Venus: 5.7

How did CCC(=O)N1C[C@H](C)[C@H](OC)CN(C)C(=O)c2ccc(NC(=O)CC(F)(F)F)cc2OC[C@H]1C do in these assays?
Vaccinia stage: 18.4; Vaccinia stage Venus: 18.0

How did C[C@@H]1CCCCO[C@H](CN(C)Cc2ccncc2)[C@H](C)CN([C@@H](C)CO)C(=O)c2cc(NC(=O)Nc3cccc4ccccc34)ccc2O1 do in these assays?
Vaccinia stage: -12.8; Vaccinia stage Venus: -6.2

How did COCC#Cc1ccc([C@H]2[C@@H](CO)N3CCCCN(S(=O)(=O)c4ccccc4F)C[C@@H]23)cc1 do in these assays?
Vaccinia stage: -13.3; Vaccinia stage Venus: -22.9

How did Cc1nc(N2[C@H](CO)[C@H](c3ccccc3)[C@H]2CNCC2CCCC2)sc1C do in these assays?
Vaccinia stage: -16.2; Vaccinia stage Venus: -1.1

Results for CO[C@H]1CN(C)C(=O)c2cc(NC(=O)c3ccccc3)ccc2OC[C@@H](C)N(C)C[C@@H]1C ?
Vaccinia stage: -8.9; Vaccinia stage Venus: -3.6

How did COc1cccc(S(=O)(=O)N(C)C[C@@H]2OCc3ccccc3-c3ccccc3C(=O)N([C@H](C)CO)C[C@@H]2C)c1 do in these assays?
Vaccinia stage: -26.3; Vaccinia stage Venus: -21.1

What do the screens show for `COc1ccc2c3c(n(C)c2c1)[C@H](CO)N(C(=O)Nc1cccc(F)c1)CC31CN(Cc2nccs2)C1`?
Vaccinia stage: -20.7; Vaccinia stage Venus: -20.7

How did C/C=C/c1ccc2c(c1)O[C@H](CN(C)S(C)(=O)=O)[C@@H](C)CN([C@H](C)CO)S2(=O)=O do in these assays?
Vaccinia stage: 9.6; Vaccinia stage Venus: 8.9

What do the screens show for `CC(C)OC(=O)N(C)C[C@H]1OCc2cn(nn2)CCCC(=O)N([C@H](C)CO)C[C@@H]1C`?
Vaccinia stage: -5.6; Vaccinia stage Venus: -1.6

Results for O=C(CN1CCOCC1)N1CCCCN2[C@H](CO)[C@@H](c3ccc(C#Cc4ccccc4F)cc3)[C@@H]2C1 ?
Vaccinia stage: -9.8; Vaccinia stage Venus: -29.1

What do the screens show for `CC(C)NC(=O)N(C)C[C@@H]1Oc2ccc(NC(=O)C3CC3)cc2C(=O)N([C@H](C)CO)C[C@H]1C`?
Vaccinia stage: 6.3; Vaccinia stage Venus: -5.1

Results for Cc1noc(C)c1NC(=O)Nc1ccc2c(c1)C(=O)N([C@@H](C)CO)C[C@@H](C)[C@@H](CN(C)Cc1ccccc1)O2 ?
Vaccinia stage: 11.9; Vaccinia stage Venus: 12.3

What do the screens show for `C[C@@H]1CN([C@@H](C)CO)C(=O)c2cc(NC(=O)CCCN(C)C)ccc2O[C@H]1CN(C)Cc1ccc(Cl)c(Cl)c1`?
Vaccinia stage: -14.9; Vaccinia stage Venus: -19.1

Results for Cc1noc(C)c1NC(=O)Nc1ccc2c(c1)C(=O)N([C@@H](C)CO)C[C@H](C)[C@H](CN(C)Cc1ccc(-c3ccccc3)cc1)O2 ?
Vaccinia stage: -10.4; Vaccinia stage Venus: -13.5

What do the screens show for `CO[C@@H]1CN(C)C(=O)c2ccc(NC(=O)Nc3ccccc3Cl)cc2OC[C@@H](C)N(Cc2ccccc2C(=O)O)C[C@H]1C`?
Vaccinia stage: 11.6; Vaccinia stage Venus: 15.2

How did CCC(=O)N1CC(=O)N2[C@H](C1)[C@H](c1ccc(C#CCc3ccccc3)cc1)[C@@H]2CO do in these assays?
Vaccinia stage: 9.1; Vaccinia stage Venus: 6.5

How did CNC[C@H]1OCCCC[C@H](C)Oc2ccc(NC(=O)NC3CCCCC3)cc2C(=O)N([C@@H](C)CO)C[C@@H]1C do in these assays?
Vaccinia stage: -1.2; Vaccinia stage Venus: 5.7

Results for Cc1ccccc1-c1ccc(C2[C@@H]3CN(C(=O)C4CCCCC4)C[C@H]2N3)cc1 (stereo partly drawn) ?
Vaccinia stage: inconclusive; Vaccinia stage Venus: -3.0

Results for O=C(C[C@H]1CC[C@@H]2[C@H](COC[C@@H](O)CN2S(=O)(=O)c2ccccc2)O1)Nc1ccc(-c2ccccc2)cc1 ?
Vaccinia stage: inconclusive

Results for Cc1noc(C)c1NC(=O)N(C)C[C@@H]1OCCCC[C@@H](C)Oc2ccc(NC(=O)c3ccccc3)cc2C(=O)N([C@H](C)CO)C[C@@H]1C ?
Vaccinia stage: 32.1; Vaccinia stage Venus: 8.0

How did C[C@H]1CCCCO[C@@H](CN(C)Cc2ccncc2)[C@@H](C)CN([C@@H](C)CO)C(=O)c2cc(N(C)C)ccc2O1 do in these assays?
Vaccinia stage: -10.0; Vaccinia stage Venus: -10.4

What do the screens show for `C[C@@H]1CN([C@@H](C)CO)C(=O)Cc2cc(NS(=O)(=O)c3ccc(F)cc3)ccc2O[C@@H]1CN(C)Cc1ccc(C(=O)O)cc1`?
Vaccinia stage: 7.8; Vaccinia stage Venus: 4.7

Results for CCC(=O)N1C[C@H](O)COC[C@@H]2O[C@H](CC(=O)N3CCCCC3)CC[C@H]21 ?
Vaccinia stage: 14.8; Vaccinia stage Venus: 20.3

How did COC(=O)[C@@H]1[C@@H](CO)[C@@H]2Cn3c(cccc3=O)[C@H]1N2C(=O)C1CC1 do in these assays?
Vaccinia stage: -0.5; Vaccinia stage Venus: 6.8

Results for CCCNC(=O)C[C@H]1CC[C@H]2[C@@H](COC[C@@H](O)CN2Cc2ccccc2F)O1 ?
Vaccinia stage: 2.0; Vaccinia stage Venus: -2.6

Results for O=C(C[C@H]1C[C@H]2c3cc(NC(=O)NC4CCCCC4)ccc3O[C@H]2[C@@H](CO)O1)NCc1cccnc1 ?
Vaccinia stage: 13.6; Vaccinia stage Venus: 9.4

How did O=S(=O)(NC[C@@H]1[C@@H](c2ccccc2)[C@@H](CO)N1CC1CC1)c1ccccc1 do in these assays?
Vaccinia stage: -5.9; Vaccinia stage Venus: 7.7

How did C[C@@H]1CN([C@@H](C)CO)C(=O)c2cc(NC(=O)Cn3cnnn3)ccc2O[C@@H]1CN(C)CC1CCCCC1 do in these assays?
Vaccinia stage: 11.0; Vaccinia stage Venus: 8.9

What do the screens show for `Cc1ccc(-c2ccc([C@@H]3[C@@H](CO)N4C(=O)CN(C(=O)c5ccncc5)C[C@H]34)cc2)cc1`?
Vaccinia stage: 0.4; Vaccinia stage Venus: -3.3

How did O=C(NCc1ccccc1)[C@@H]1[C@@H](CO)[C@@H]2Cn3c(cccc3=O)[C@H]1N2C(=O)c1cnccn1 do in these assays?
Vaccinia stage: -0.8; Vaccinia stage Venus: -3.8

Part of the list above in order of length of the SMILES, falling:
Results for Cc1noc(C)c1NC(=O)Nc1ccc2c(c1)C(=O)N([C@@H](C)CO)C[C@H](C)[C@H](CN(C)Cc1ccc(-c3ccccc3)cc1)O2 ?
Vaccinia stage: -10.4; Vaccinia stage Venus: -13.5

What do the screens show for `C[C@@H]1CN([C@@H](C)CO)C(=O)Cc2cc(NS(=O)(=O)c3ccc(F)cc3)ccc2O[C@@H]1CN(C)Cc1ccc(C(=O)O)cc1`?
Vaccinia stage: 7.8; Vaccinia stage Venus: 4.7

What do the screens show for `C[C@@H]1CN([C@@H](C)CO)C(=O)c2cc(NC(=O)CCCN(C)C)ccc2O[C@H]1CN(C)Cc1ccc(Cl)c(Cl)c1`?
Vaccinia stage: -14.9; Vaccinia stage Venus: -19.1

How did O=C(NCc1ccccc1)[C@@H]1[C@@H](CO)[C@@H]2Cn3c(cccc3=O)[C@H]1N2C(=O)c1cnccn1 do in these assays?
Vaccinia stage: -0.8; Vaccinia stage Venus: -3.8

How did O=S(=O)(NC[C@@H]1[C@@H](c2ccccc2)[C@@H](CO)N1CC1CC1)c1ccccc1 do in these assays?
Vaccinia stage: -5.9; Vaccinia stage Venus: 7.7

Results for CCCNC(=O)C[C@H]1CC[C@H]2[C@@H](COC[C@@H](O)CN2Cc2ccccc2F)O1 ?
Vaccinia stage: 2.0; Vaccinia stage Venus: -2.6
